TRPV1 PAM: potentiators of human vanilloid receptor 1 (TRPV1); 320,000 compounds, 0.02% hits; potentiation, % at 8.33 µM; TRPV1-expressing cells, Fluo-8 calcium influx, capsaicin EC20 potentiation; host cell line not named in the record; control for the full effect not named in the record; active means potentiation above 80%; inconclusive means 30% to 80%; inactive means below 30%; further: 0% is about no effect
Target sequence (Q8NER1 whole entry, looked up): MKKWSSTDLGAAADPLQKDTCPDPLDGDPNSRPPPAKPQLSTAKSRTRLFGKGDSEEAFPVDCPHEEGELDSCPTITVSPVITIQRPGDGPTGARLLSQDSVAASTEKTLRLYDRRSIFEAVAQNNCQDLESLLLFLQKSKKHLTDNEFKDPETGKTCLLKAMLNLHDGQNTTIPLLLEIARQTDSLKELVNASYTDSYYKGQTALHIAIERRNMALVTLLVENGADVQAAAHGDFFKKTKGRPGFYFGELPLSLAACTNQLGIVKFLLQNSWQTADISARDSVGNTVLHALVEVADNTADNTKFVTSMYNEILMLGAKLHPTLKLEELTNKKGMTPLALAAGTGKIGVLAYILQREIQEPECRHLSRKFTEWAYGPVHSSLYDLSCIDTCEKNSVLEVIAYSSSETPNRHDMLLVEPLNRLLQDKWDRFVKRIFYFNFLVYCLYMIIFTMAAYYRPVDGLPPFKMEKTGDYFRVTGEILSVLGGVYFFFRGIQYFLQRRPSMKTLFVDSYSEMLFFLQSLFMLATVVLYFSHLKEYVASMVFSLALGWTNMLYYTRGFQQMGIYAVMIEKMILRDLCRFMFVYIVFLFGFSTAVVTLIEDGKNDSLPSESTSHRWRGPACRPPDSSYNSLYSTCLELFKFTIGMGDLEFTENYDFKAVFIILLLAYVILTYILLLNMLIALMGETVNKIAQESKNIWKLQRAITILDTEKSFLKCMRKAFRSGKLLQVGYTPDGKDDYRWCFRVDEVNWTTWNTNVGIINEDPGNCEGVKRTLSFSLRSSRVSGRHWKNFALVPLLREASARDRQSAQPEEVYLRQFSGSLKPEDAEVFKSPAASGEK
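TRPV1-expressing cells were cultured overnight at 35.5C and loaded with Fluo-8 calcium dye for 40 to 90 min at room temperature. After a 10 s baseline, compound was added and calcium influx was read kinetically for 3 min (ex 480/em 520 nm).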
ClpP mod: qHTS Assay for Activators of ClpP; purified B. subtilis ClpP, FRET peptide cleavage, 20 min; Potency, µM (top dose mostly 57.5 µM), for inactives: at the highest dose activity change, negative = active; 340,000 compounds, 1.9% hits; active = well fitted falling curve with a large enough effect; inconclusive = small, poorly fitted or top-dose-only effect; inactive = no such curve, though single readings can be large or run the other way; further: potency means the concentration at half of the fitted maximal effect; the source files actives as falling curves though it sought activators and does not explain the sign; nearly all actives have a fitted effect of over 65% in size; many hits overshoot -100%
Target sequence (P80244 whole entry, looked up): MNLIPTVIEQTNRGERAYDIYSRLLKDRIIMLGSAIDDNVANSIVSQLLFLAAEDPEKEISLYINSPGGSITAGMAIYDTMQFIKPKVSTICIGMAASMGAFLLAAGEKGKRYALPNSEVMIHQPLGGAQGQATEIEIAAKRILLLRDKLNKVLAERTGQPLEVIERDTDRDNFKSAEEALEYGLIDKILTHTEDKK
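Purified B. subtilis ClpP, 10 microg/mL final in Tris/HCl pH8 with KCl, BSA, glycerol and Tween-20, cleaved an Abz/nitrotyrosine-quenched decapeptide. Fluorescence (ex 320, em 430) was read at 0 and 20 min at room temperature. Delta was normalized to 5.8 microM ADEP and DMSO/no-enzyme controls.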
Sfp PPTase inh: Sfp phosphopantetheinyl transferase inhibition | Q9F4F7 | Biochemical Sfp PPTase activity, qHTS | Potency, µM, inactives show max response, negative = inhibition, usual class: inhibitors | 310,000 compounds, 3.5% hits | AID 1490; active means well fitted inhibition curve with a large enough effect; inconclusive means small, poorly fitted or top-dose-only effect, or another doubt; inactive means no such curve, though single readings can be large or run the other way;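 further: the enzyme is Sfp with the accession as filed and its product quenches rhodamine fluorescence; potency means the concentration at half of the fitted maximal effect; 0% = enzyme reaction without inhibitor and -100% = no enzyme wells; top concentration of the series not given in the record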
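Sfp 15 nM + cpd, 15 min RT; start w/ rhodamine-CoA 5 uM, BHQ-2-YbbR 12.5 uM (final); 50 mM Hepes pH 7.6, 10 mM MgCl2, 0.01% NP-40, 0.01% BSA; read 525/598 nm at 0 and 30 min.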
Menin-MLL FL inh: menin-MLL binding inhibition, fluorescein peptide; Fluorescence polarization, fluorescein-MLL peptide displacement from menin; FP activity change, % at 61.4 µM; 290,000 tested, under 10 active; inconclusive = falling polarisation curve, or a change in total fluorescence; inactive = total fluorescence flat and polarisation flat or rising; no compound was filed as active; the % refers to the polarisation; negative = inhibition;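 further: % of control where 0% means no effect; inhibitors lower the polarisation; unlabelled MLL peptide was the positive control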
TRPML1 inh: human mucolipin-1 channel inhibition | activity change, negative = inhibition, % (no concentration beside the values) | 390,000 compounds, 0.02% hits | TRPML1-inducible cells, Ca2+ dye fluorescence, FDSS; hits give low values; inhibition of EC80 agonist-evoked calcium signal | AID 624415 | Q9GZU1; in the data active means activity change below about -50%; inconclusive means about -30% to -50%; inactive means above about -30%;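 further: stimulus is agonist 54-4 at its EC80 concentration; on the % scale 0 is the no-effect control and ±100 the full control effect; compound concentration not given in the record; the text of the record puts the active cut at -80%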
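Calcium fluorescence in TRPML1-DL cells induced overnight with Tet: a 110 s read after compound pin addition, then a 110 s antagonist read after challenge with 54-4 at 4 uM final (EC80).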
TRPML1 agonist: activates the human TRPML1 channel | TRPML1-expressing cells, Ca2+ dye fluorescence, FDSS; host cell line not named in the record; reference of the full effect not given here | activation, % (concentration not given with the values) | 410,000 compounds, 0.12% hits | AID 624414; in the data active = activation above about 50%; inconclusive = about 30% to 50%; inactive = below about 30%; further: 0% is about no effect; the text of the record puts the active cut at 80%
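In this qHTS format, compounds were pin-transferred onto Ca8-dye-loaded TRPML1-DL cells induced with Tet overnight, and intracellular Ca2+ fluorescence was recorded kinetically for 110 s after a 10 s baseline. A subsequent 4uM final 54-4 (EC80) addition followed by a second 110 s read served as the antagonist phase.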
PINK1 modulator: changes PINK1 expression; PINK1 immunofluorescence, high-content cytometry, 24 h; Potency, µM (doses to about 76.6 µM), inactives show at the highest dose activation (PINK1 increase), hits mostly activators; 410,000 compounds, 0.2% hits; active = well fitted activation curve with a large enough effect; inconclusive = small, poorly fitted or top-dose-only effect; inactive = flat fitted curve, though single readings scatter; cell line not stated here;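 further: potency means the concentration at half of the fitted maximal effect; % of control where 0% means no effect; nearly all actives have a fitted effect of over 65% in size; a mitochondrial uncoupler was the plate control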
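Cells are seeded, rested 12 hours, then given compound at five concentrations or DMSO for 24 hours. After fixation, blocking and antibody staining, PINK1 amount and mitochondrial localization are scored; CCCP serves as control.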
Active calls of the source: *; u = inconclusive; x = no result given; [ ] = dose if it differs, or a comment. No enrichment for hits; any-hit rate near 4.4%.

SMILES | TRPV1 PAM | ClpP mod | Sfp PPTase inh | Menin-MLL FL inh | TRPML1 inh | TRPML1 agonist | PINK1 modulator
COc1cccc(CNC(=O)C(=O)NCCC2CCCCN2S(=O)(=O)c2ccc(C)cc2)c1 (configuration not stated) | -1 | -1.3% | x | x | 27 | 1.1 | 1.0%
CCCn1c(=O)n(C)c(=O)c2c(SCC(=O)NCc3ccco3)nc(C3CC3)nc21 | 15 | -3.9% | -2% | 8.8 | 2 | -0.4 | 2.4%
COc1cc(N/C=C2\CC(=O)NC(C)=C2C#N)cc(OC)c1OC | 12 | x | -3% | u | 24 | -0.9 | 5.7%
CCCCc1c(O)nc2ccccn2c1=O | 2 | -0.6% | 13% | 4.0 | -10 | -0.5 | -1.0%
COc1cccc(-c2cc(C(=O)NCc3ccccc3)[nH]n2)c1 | x | -1.7% | x | x | 5 | 0.0 | -0.2%
COc1cccc(NC(=S)N2CCC(NC(=O)C3CCCCC3)CC2)c1 | 0 | 1.2% | 4% | 1.9 | 23 | -0.9 | 0.9%
COc1ccc(C)cc1NC(=O)CSc1nnc(CC(=O)Nc2ccccc2F)n1C | -6 | x | 12% | 0.6 | -4 | -0.4 | 2.4%
Cc1ccccc1-c1cc(N2CCN(C)CC2)ncn1 | x | x | 20% | -4.6 | x | x | -0.2%
CCOc1ccc(OCCCCOc2ccccc2C(C)=O)cc1 | 1 | -1.2% | u | 2.9 | 13 | 2.2 | -1.5%
COc1cc2c(cc1OC)C1(CCCC1)CNC2C (configuration not stated) | 4 | -0.7% | 10% | 1.5 | 22 | -0.5 | x
O=C(Nc1nc(=O)c2ccccc2s1)c1ccc(Cl)cc1 | -1 | -7.9% | 25µM* | -1.7 | -11 | -0.2 | 3.1%
Cc1nnc(NC(=O)c2ccc3ccccc3n2)s1 | -3 | -1.5% | u | -0.2 | 4 | 0.7 | -0.7%
O=C(Cn1c(=O)c2ccccc2n(CC(=O)Nc2ccc(F)cc2F)c1=O)NCCc1ccccc1 | x | -7.5% | x | x | 3 | 0.2 | 14%
CCOc1ccc2c(=O)c(-c3ccc4c(c3)OCCCO4)c(C)oc2c1 | 0 | -0.4% | u | 2.2 | -26 | 0.7 | 3.5%
CCOc1ccccc1N(CC(=O)N1CCOCC1)S(=O)(=O)c1ccccc1 | -8 | -0.2% | 21% | 1.5 | 0 | 28 | 1.2%
Cc1csc(NC(=O)c2ccc(S(C)(=O)=O)cc2)n1 | 20 | x | 14% | 1.9 | -10 | -0.2 | 1.9%
COc1ccc(NC(=O)C2CCCN(S(=O)(=O)c3ccc4c(c3)CCCC(=O)N4)C2)cc1OC (configuration not stated) | x | -1.5% | x | x | 19 | 4.9 | -0.9%
COc1cccc(CC(NC(C)=O)C(=O)NC2CCN(c3nnnn3-c3ccccc3)CC2)c1OC (configuration not stated) | -1 | -2.5% | 24% | -4.2 | -14 | -0.1 | 3.2%
CCOC(=O)C1(C)CCCN(C(=O)c2c(F)ccc(C)c2F)C1 (configuration not stated) | x | -2.0% | x | x | -3 | 0.1 | -0.6%
CC(C)C(=O)Nc1ccc(C(=O)Nc2ccc(S(=O)(=O)N3CCOCC3)cc2)cc1 | -13 | -3.0% | 8% | -0.6 | 7 | 0.4 | 2.8%
Cc1ccc(C(=O)Nc2ccccc2F)cc1S(=O)(=O)N1CCOCC1 | x | -0.3% | x | x | 32 | 0.3 | 0.6%
CCOC(=O)CSc1nnc(CNC(=O)c2ccco2)n1-c1ccc(F)cc1 | 2 | -5.0% | -1% | 3.2 | -6 | 0.1 | 7.1%[38.3 µM]
C(=C\c1ccccc1)/CN1CCN(C(CCc2ccccc2)c2nnnn2C2CCCC2)CC1 (configuration not stated) | x | -0.7% | x | x | x | -0.3 | 1.9%
Cc1cccc(-n2c(SCC(=O)N(C)C3CCS(=O)(=O)C3)nc3ccccc3c2=O)c1C (configuration not stated) | -24 | -4.5% | x | x | -1 | 1.0 | 0.5%
COC(=O)c1cccc2c1-c1ccccc1/C2=N\NC(N)=O | 7 | 0.3% | -5% | -18 | -17 | 0.6 | 2.5%
O=C(Nc1cc(SCCO)cc([N+](=O)[O-])c1)c1ccc(Br)o1 | -10 | -0.3% | 7% | 2.6 | 43 | -0.8 | -0.1%
Cc1ccc(S(=O)(=O)c2c(Nc3ccc(C)c(C)c3)sc(C(=O)c3ccc4c(c3)OCO4)c2N)cc1 | x | -3.8% | x | x | -7 | 11 | 0.6%
COc1ccc(NS(=O)(=O)c2ccc(C)c(C(=O)NCCCn3ccnc3)c2)cc1 | x | -0.3% | x | x | 0 | -0.8 | 1.1%
COC(=O)CSC1=C(C#N)C(c2ccc(C(C)C)cc2)CC(=O)N1 (configuration not stated) | -15 | -0.5% | 0% | 0.6 | 19 | -0.7 | 0.1%
Cc1cc(C)c(S(=O)(=O)NCC(c2ccco2)S(=O)(=O)c2cccs2)c(C)c1 (configuration not stated) | x | 0.0% | x | x | -14 | 0.2 | -0.5%
COc1ccc(C(=O)NCC(=O)OCC(=O)Nc2cc([N+](=O)[O-])ccc2F)cc1 | 4 | 0.5% | 11% | -2.0 | 1 | 0.3 | 2.4%
O=C(c1ccc(S(=O)(=O)N2CCOCC2)cc1)N1CCN(C2=NS(=O)(=O)c3ccccc32)CC1 | u | -2.4% | 7% | 3.7 | -7 | 0.2 | -4.4%[38.3 µM]
O=C(Cc1ccccc1)NCC(=O)N/N=C/c1ccc(Cl)cc1 | 3 | -1.2% | 11% | 0.7 | -8 | 0.0 | 3.2%
O=C(COC(=O)C1CC(=O)N(c2ccc3c(c2)OCCO3)C1)Nc1ccc2c(c1)CCC2 (configuration not stated) | 1 | -1.7% | 10% | 8.5 | 17 | 1.0 | 0.6%
Cc1ccccc1Cn1c(=O)n(Cc2ccco2)c(=O)c2sc3ccccc3c21 | x | u | x | x | -22 | 0.5 | 2.0%
CCCCNC(=O)N1CCN(Cc2ccc(F)cc2)CC1 | -10 | -0.5% | 13% | -0.2 | 41 | 3.9 | -0.9%
O=C(CCc1nnc(CCCCc2ccccc2)o1)N1CCCCC1CCO (configuration not stated) | -4 | 0.1% | 10% | 1.7 | -1 | 1.1 | -1.1%
Cc1cc(C)nc(Nc2nc(-c3ccccc3)cs2)n1 | 8 | -0.5% | -18% | -3.7 | x | x | 5.4%
CN(C(=O)Cc1ccccc1)n1cnnc1 | 5 | 0.3% | -2% | 0.7 | 11 | -0.5 | -0.1%
CC(C)(C)n1nnnc1C(c1ccccc1OC(F)(F)F)N1CCN(C/C=C/c2ccccc2)CC1 (configuration not stated) | x | 3.1% | x | x | -10 | 3.8 | 7.3%
CN1CCN(c2ccccc2NC(=O)c2ccc(F)cc2)CC1 | 3 | -0.4% | 7% | 3.6 | x | x | -0.2%
COc1cc2cc(CN(CCc3cccc(C)c3)C(=S)NCCCN(C)C)c(=O)[nH]c2cc1OC | 3 | 28µM* | 9% | 5.0 | 6 | -0.4 | -1.9%
CCC(=O)NCCc1nc2cc(NC(=O)c3cccc(Br)c3)ccc2n1C | x | -2.7% | x | x | 0 | -0.4 | -0.4%
CCOCCCNCC(=O)Nc1ccccc1N1CCOCC1 | -3 | -0.2% | -25% | 2.3 | 39 | 0.2 | 20%[38.3 µM]
CC(C)(C)c1ccccc1NC(=O)c1ccco1 | -2 | 0.7% | 12% | 0.9 | -1 | 0.4 | 1.6%[38.3 µM]

Two of these compounds, reformatted:
Structure	TRPV1 PAM	ClpP mod	Sfp PPTase inh	Menin-MLL FL inh	TRPML1 inh	TRPML1 agonist	PINK1 modulator
Cc1cc(C)nc(Nc2nc(-c3ccccc3)cs2)n1	8	-0.5%	-18%	-3.7	x	x	5.4%
CCCCNC(=O)N1CCN(Cc2ccc(F)cc2)CC1	-10	-0.5%	13%	-0.2	41	3.9	-0.9%

Further compounds.
SMILES | TRPV1 PAM | ClpP mod | Sfp PPTase inh | Menin-MLL FL inh | TRPML1 inh | TRPML1 agonist | PINK1 modulator
CC1=C(C#N)C(=O)NC1(C)O (configuration not stated) | x | 0.1% | x | x | 15 | 0.4 | -0.2%
O=C(OCCNC(=O)c1ccc2ccccc2n1)c1cccnc1 | 13 | -1.8% | 4% | 1.2 | 7 | -0.9 | 9.9%[38.3 µM]
COc1ccc(NC(=O)CN(c2ccc(C)cc2)S(=O)(=O)c2c(C)nn(C)c2C)cc1 | 10 | -2.3% | 7% | -2.0 | 23 | 0.0 | -0.2%
CCCCCOC(=O)Cn1c(SCC(=O)Nc2ccccc2)nc2c1c(=O)[nH]c(=O)n2C | 15 | -0.9% | 7% | 0.2 | -4 | -1.7 | 0.0%
Cc1ccccc1N(CC(=O)N/N=C/c1ccc(Cl)cc1)C(=O)c1ccccc1 | 5 | -1.0% | 3% | 0.1 | -2 | 2.1 | -3.3%
Cc1cccc(C)c1NC(=O)COC(=O)c1ccccc1Nc1ccccc1 | 1 | -20% | -9% | 4.1 | -22 | 1.0 | 1.6%
Cn1c(=O)c(Nc2ccc(Cl)cc2)c2c3c(cccc31)C(=O)c1ccccc1-2 | 11 | x | -15% | u | -13 | u | 18%
CCN(CC(=O)Nc1ccc2c(c1)OCCO2)Cc1nc2cc(Cl)ccc2c(=O)[nH]1 | 1 | 1.7% | x | x | -14 | 1.9 | 3.5%
COCCCC1CCN(C(=O)C2CCC(=O)N(CC3CCCCC3)C2)CC1 (configuration not stated) | 6 | 0.9% | 10% | x | 9 | 0.7 | 0.3%
COc1ccc2c(c1)cc1c(=O)n(CC(=O)NC(C)C)nc(C)n12 | x | 0.9% | x | x | -15 | -0.6 | 2.7%
COc1ccc(NC(=O)c2ccc3ncsc3c2)c2ccccc12 | 3 | -0.8% | -5% | x | 10 | 0.7 | 5.3%
CCOC(=O)C(/C(C)=N/NC(=O)c1ccccc1[N+](=O)[O-])C(C)C (configuration not stated) | -9 | 1.4% | 13% | 5.1 | 0 | 0.1 | u
CCCn1c(-c2cccc([N+](=O)[O-])c2)nc2c1c(=O)[nH]c(=O)n2Cc1ccccc1 | 1 | -3.3% | 3% | 5.2 | -17 | 1.7 | -5.7%
CCc1ccc(NC(=O)CCn2c(-c3ccc(OC)cc3)cc(C(C)=O)c2C)cc1 | x | -4.2% | x | x | 11 | -0.1 | 3.6%
CN1CCN(CC(=O)Nc2c(C(=O)c3ccccc3)oc3ccccc23)CC1 | u | x | 13% | -5.4 | 7 | 1.0 | 1.3%

Assay outcomes from PubChem.
